# Bioassay records (PubChem)
# RecA intein inh: blocks M. tuberculosis RecA intein splicing; 290,000 tested, 0.75% active; inhibition, %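 (about 9 µM by stock and volumes)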; cell-free RecA intein splicing, fluorescence; AID 2221; in the data active = inhibition above about 30%;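 also: 0% = vehicle wells and 100% = reference inhibitor control wells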
# Target sequence (P9WHJ3 whole entry, looked up): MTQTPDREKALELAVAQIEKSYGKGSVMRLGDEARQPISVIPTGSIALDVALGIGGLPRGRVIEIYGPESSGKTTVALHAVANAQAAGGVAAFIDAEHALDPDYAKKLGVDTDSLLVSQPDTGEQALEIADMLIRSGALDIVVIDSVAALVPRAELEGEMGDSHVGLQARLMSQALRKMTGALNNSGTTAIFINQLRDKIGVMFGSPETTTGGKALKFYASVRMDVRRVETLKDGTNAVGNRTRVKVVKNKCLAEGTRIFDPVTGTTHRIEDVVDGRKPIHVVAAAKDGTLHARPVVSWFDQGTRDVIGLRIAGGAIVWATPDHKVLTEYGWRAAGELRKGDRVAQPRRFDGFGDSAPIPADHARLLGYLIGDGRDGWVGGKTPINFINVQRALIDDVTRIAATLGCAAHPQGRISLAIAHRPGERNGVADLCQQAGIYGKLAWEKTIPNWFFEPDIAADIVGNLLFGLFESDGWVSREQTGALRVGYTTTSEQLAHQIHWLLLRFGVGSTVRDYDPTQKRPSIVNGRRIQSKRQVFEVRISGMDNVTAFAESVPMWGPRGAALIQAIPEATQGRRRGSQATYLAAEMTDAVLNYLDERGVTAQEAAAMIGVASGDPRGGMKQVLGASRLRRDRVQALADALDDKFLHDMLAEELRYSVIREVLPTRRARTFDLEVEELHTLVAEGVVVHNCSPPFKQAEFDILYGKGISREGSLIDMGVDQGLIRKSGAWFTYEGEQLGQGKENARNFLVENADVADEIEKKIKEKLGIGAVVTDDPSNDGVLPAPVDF
# Mtb H37Rv: M. tuberculosis H37Rv growth inhibitors, H37Rv strain (AID 1626) | M. tuberculosis H37Rv growth inhibition; higher % means a stronger effect | inhibition, % at 10 µM; hits with a dose series show IC50 in µM | 220,000 tested, 0.95% active;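 active = confirmed in a dose series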;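 also: bacteria incubated seven days before Alamar blue readout; 0% = bacteria only wells and 100% = bacteria with antibiotic wells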
# YopH PTP inh: blocks Yersinia enterocolitica YopH tyrosine phosphatase. fluorescence Ex485/Em525. inhibition, %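 (about 10 µM by stock and volumes)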. 140,000 tested, 0.16% active;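 active = inhibition of 50% or more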;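 also: controls were vehicle for no effect and minimum signal wells for full effect; inactives centre near -20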
# Arbovirus anti: blocks arbovirus infection; 200,000 tested, 0.37% active; inhibition, % at 10 µM; arbovirus infection cell-based antiviral screen;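 active = inhibition from about 30%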;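 also: bluetongue infection of BSR cells; cell survival read as ATP light after 72 h; 0% = infected wells without compound and 100% = uninfected wells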
# Mtb bLac sens: beta-lactam sensitization of Mtb H37Rv. M. tuberculosis H37Rv growth with meropenem, percent inhibition; hits of this screen are not shown here. inhibition, % at 25 µM. 330,000 tested, 0.27% active. AID 434955;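 active = about 74% or more and at least 40 points above the plate without the antibiotic, then above 30% in a dose series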;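 also: growth measured after seven days incubation then overnight dye step; 0% = bacteria only wells and 100% = bacteria with antibiotic; twin plates without the antibiotic show which effects depend on it; some results filed as inactive read as strong as hits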
# Arbovirus anti repeat: second read-out of Arbovirus anti, no call of its own (marks repeat the call); inhibition, %; measured here: 10K subset replicate screen; many hits read low in the repeat;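 first of two repeat runs on a subset; 0% = infected and 100% = uninfected wells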
# Numbers without * were called inactive; / = not tested or not shown. A portion of the library; count on the stated rates, not on these rows.
SMILES,RecA intein inh,Mtb H37Rv,YopH PTP inh,Arbovirus anti,Mtb bLac sens,others
O=C(Cn1nc(C(=O)O)c2ccccc2c1=O)c1c[nH]c2ccccc12,1.8,-6.5%,/,/,-7.7,
Cc1nnc(N2CCCC(C(=O)NCc3ccccc3F)C2)c2nn(-c3ccccc3)c(C)c12 (stereo not drawn),-2.4,/,/,/,2.4,
Cc1ccc(OC(=O)Nc2ccccc2)cc1,3.2,0.2%,/,11.2,1.5,
CC(NC(=O)c1ccco1)C(=O)N1CCN(C(c2ccccc2)c2ccccc2)CC1 (stereo not drawn),5.9,/,/,/,7.5,
Cc1c(N=Cc2ccncc2)c(=O)n(-c2ccccc2)n1C,-3.4,-4.6%,-43.1,2.9,5.8,
N/C(=N\OC(=O)c1cc(Br)ccc1Cl)c1cccnc1,1.7,4.1%,/,-9.9,0.5,
Cc1nn(Cc2ccccc2)c(Cl)c1/C=N/NC(=O)CNc1cccc(C(F)(F)F)c1,-2.8,2.5%,-47.1,10.1,2.2,
CCCC(=O)NC(c1ccc(OCC)cc1)c1ccc(OC)c(OC)c1 (stereo not drawn),2.0,-7.7%,/,/,2.8,
CCN(CC)S(=O)(=O)c1cccc(C(=O)N2CCCc3ccccc32)c1,-0.2,/,/,/,-2.1,
COCCN(C(=O)CCC(=O)Nc1ccccn1)C(C(=O)NC1CCCC1)c1ccc(OC)cc1 (stereo not drawn),0.9,-2.1%,11.5,7.7,7.5,
CCOCC(=O)Nc1cccc(NC(C)=O)c1,1.1,0.2%,0.6,3.7,-4.3,
CCS(=O)(=O)NCc1nnc2n1-c1ccc(Br)cc1C(c1ccccc1Cl)=NC2,2.8,/,/,/,-2.5,
Cc1ccc(CC2CC(=O)N(c3ccncc3)C2=O)cc1 (stereo not drawn),-12.0,-5.0%,-46.7,0.2,4.8,
COc1ccccc1S(=O)(=O)Nc1cccc(-c2nnc3n2CCCCC3)c1,-1.5,6.8%,-41.5,-1.4,-11.6,
Cc1cnc(C(=O)OCC(=O)c2ccc(Br)s2)cn1,2.2,/,/,/,-0.4,
COc1ccc(CSC2=NCCN2)cc1Br,0.3,/,/,/,3.8,
CN1CCN(S(=O)(=O)c2cccc(C(=O)O)c2)CC1,-3.8,-4.4%,/,-0.2,1.2,
COCc1[nH]nc2c1C1(CCSCC1)C(C#N)=C(N)O2,74.3*,-3.0%,-8.1,3.5,3.0,
Cc1ccccc1OCC(=O)NCCN(C)C,-3.0,-1.3%,-25.2,-0.8,-17.0,
CCN(CC)S(=O)(=O)c1ccc(-c2nnc(SCC(=O)c3ccc(OC)cc3)o2)cc1,-4.1,0.2%,-1.1,6.7,2.4,
Cc1cc(-c2nnc(SCC(=O)Nc3ccc(F)cc3)n2N)n[nH]1,0.7,/,/,/,-5.6,
Cc1cccc(-n2ncc3c(NCc4ccc5c(c4)OCO5)ncnc32)c1,0.9,0.4%,-8.5,3.2,2.8,
Clc1ccc(N2CCN(Cc3ccco3)CC2)cc1,3.6,/,/,/,-4.0,
CCN1CCN(CC(=O)N2N=CCC2c2ccccc2)CC1 (stereo not drawn),0.5,-2.0%,/,/,0.5,
CC(C)C[C@H](NC(=O)c1[nH]cnc1C(=O)N[C@@H](Cc1ccccc1)C(=O)OCc1ccccc1)C(=O)OC(C)(C)C,0.6,/,/,/,-2.2,
COc1ccc(CCNC(=O)C2CCCN(S(=O)(=O)c3cccc4nonc34)C2)cc1OC (stereo not drawn),-0.7,-3.3%,-3.7,-6.6,3.8,
O=C(Nc1nccs1)C1CCCN1/C=C/C(=O)C(F)(F)F (stereo not drawn),-6.0,/,/,/,-0.1,
CCCC(=O)Nc1c(-c2ccccc2)c(=O)c(C)nn1-c1ccccc1,-0.7,0.3%,/,/,-2.0,
COc1ccc(CNC(=O)Cn2cc(C(F)(F)F)ccc2=O)cc1OC,22.7,/,/,/,4.8,
CCCC(c1nnnn1Cc1ccco1)N1CCN(C2CCCC2)CC1 (stereo not drawn),-1.4,2.4%,-14.0,4.1,0.1,
COc1ccc(C(=O)Nc2ccc(Oc3ncnc4sc(-c5ccccc5)cc34)cc2)cc1OC,-0.1,8.8%,-22.3,-4.5,-3.9,
COCC1CCN(C(=O)c2ccc3oc(Cc4ccc(Cl)cc4)nc3c2)C1 (stereo not drawn),-0.7,/,/,/,-2.0,
Cc1csc(NC(=O)CSc2nnc(-c3ccoc3C)n2Cc2ccco2)n1,5.7,9.5%,-37.3,-17.3,-1.4,
Cc1cc(=O)[nH]c(-c2ccccc2O)n1,-1.6,-9.3%,-59.4,0.9,-12.4,
O=C(NC1CN2CCC1CC2)c1ccc(-c2ccc([N+](=O)[O-])cc2)o1 (stereo not drawn),2.8,2.5%,-25.2,-13.3,0.6,
Cc1ccc(C(=O)N(CC(=O)NC2CCCC2)c2ccc(F)cc2)s1,-1.0,/,/,/,1.1,
CCC(C(=O)OC)n1cnc2c(nnn2-c2ccc(F)cc2)c1=O (stereo not drawn),0.6,/,/,/,-5.0,
CC(C)[C@H](NC(=O)OC(C)(C)C)C(=O)N/N=C/c1cccc2nccnc12,-8.4,-1.1%,-11.5,-6.4,-8.3,
CCSc1nnc(SCC(=O)N2CCN(C(=O)c3ccco3)CC2)s1,2.1,/,/,/,3.9,
COc1ccccc1-c1cn[nH]c1-c1ccc(OCc2ccccc2F)cc1O,2.8,-0.9%,/,/,-1.8,
C=CCN1C(=O)/C(=C\c2ccc(Cl)cc2)N=C1SCC(=O)NCCC,-3.8,-0.5%,-26.3,4.6,7.6,
CCOC(=O)C1CCN(c2nc3ccccc3nc2C(C#N)C(=O)OC(C)COC)CC1 (stereo not drawn),-3.0,/,-38.3,10.0,-5.1,
Cc1ccnc(NC(=O)c2ccc([N+](=O)[O-])s2)c1,-5.7,/,/,/,97.4,
COc1cc(CN2CCNC(=O)C2CC(=O)N(C)Cc2cccnc2)cc(OC)c1 (stereo not drawn),-2.3,-5.9%,/,7.1,-3.7,
O=C(c1nc2ccc(Cl)cn2c1CN1CCCC1)N1CCc2ccccc2C1,1.0,/,/,/,-3.4,
COc1ccc(/C=N/NC(=O)c2ccc(CSc3nc(C)cc(C)n3)cc2)c(OC)c1OC,-2.5,-6.7%,-28.9,-8.7,8.2,
O=[N+]([O-])c1ccc(C2[C@H]3C(c4ccccc4)=NC4(CCCCC4)N23)cc1 (stereo partly drawn),/,0.1%,2.1,-5.7,2.8,
CN(C)c1ccc(CNn2cnnc2)cc1,-1.4,-4.6%,-17.2,-2.5,-8.5,
CCN(CC)CCNC(=O)c1ccc(CS(=O)(=O)c2ccc(Br)cc2)o1,1.1,-8.1%,-4.2,1.4,4.8,Arbovirus anti repeat=0.3
Cc1nnc(SCC(N)=O)n1CCc1ccccc1,-0.7,-4.8%,-33.2,0.0,0.8,
CC(=O)CC[C@@H](C)O[C@@H]1OC(C)[C@H](O)CC1O (stereo partly drawn),0.5,/,/,/,-6.4,
Cc1ccc2c(c1)[nH]c1c(=O)n(CCCN3CCOCC3)cnc12,0.5,3.4%,-25.0,9.0,-16.2,
Cc1ccc(S(=O)(=O)N2CCOCC2)cc1NC(=O)Cn1ccsc1=N,-0.3,/,6.6,13.8,-0.5,
CC(C)CNC(=O)c1ccccc1NC(=O)CN(c1ccccc1)S(=O)(=O)N(C)C,-2.1,3.1%,/,-7.6,-2.4,
COc1ccc(-c2cnn(C3CCS(=O)(=O)C3)c2N)cc1 (stereo not drawn),-1.8,-8.4%,-21.1,9.9,-5.1,
Nc1nc(N2CCOCC2)nc(N(c2ccccc2)c2ccccc2)n1,-3.0,2.7%,-48.9,3.0,-6.3,Arbovirus anti repeat=5.8
O=C(CCl)N(C1CCCC1)C1CCS(=O)(=O)C1 (stereo not drawn),7.7,/,/,/,45.8,
CCN(CC)c1ccc(/C=C2\SC(N)=NC2=O)cc1,-5.9,/,/,/,-0.1,
O=C(OCc1ccccc1)N1CCOCCOCCN(C(=O)OCc2ccccc2)CCOCCOCC1,-0.1,-3.2%,-31.7,-6.6,0.8,
COc1ccc(/C=C2\N=C(c3ccccc3)NNC2=O)cc1,3.2,-7.0%,/,/,-4.9,

# 3 compounds already listed, ordered by formula weight, ascending:
SMILES,RecA intein inh,Mtb H37Rv,YopH PTP inh,Arbovirus anti,Mtb bLac sens,others
CN(C)c1ccc(CNn2cnnc2)cc1,-1.4,-4.6%,-17.2,-2.5,-8.5,
Cc1nnc(SCC(N)=O)n1CCc1ccccc1,-0.7,-4.8%,-33.2,0.0,0.8,
O=[N+]([O-])c1ccc(C2[C@H]3C(c4ccccc4)=NC4(CCCCC4)N23)cc1 (stereo partly drawn),/,0.1%,2.1,-5.7,2.8,

# Following part
SMILES,RecA intein inh,Mtb H37Rv,YopH PTP inh,Arbovirus anti,Mtb bLac sens,others
CC1(C)CC(=O)C(C(=O)CCCCC(=O)C2C(=O)CC(C)(C)CC2=O)C(=O)C1,-1.2,/,-45.8,19.4,8.4,
CC1CCN(S(=O)(=O)c2ccc(NC(=O)CNC3CCCCC3)cc2)CC1,-1.1,/,/,/,3.1,
Cc1ccc2[nH]c(=O)c(Cc3ccccc3)c(O)c2c1,-3.8,2.1%,/,13.6,5.3,
COC(=O)c1cc(NC(=O)Cc2ccc(OC)cc2)cc(C(=O)OC)c1,3.7,0.7%,-14.8,5.7,-2.5,
Cc1ccc(Nc2nc(NCCCN3CCOCC3)nc(N)c2[N+](=O)[O-])cc1,0.7,4.4%,5.1,15.0,9.6,
CC[n+]1ccc(C)c2cc(S(=O)C(F)(F)F)ccc21 (stereo not drawn),3.8,-5.1%,-42.4,0.5,-1.8,
O=C(CSc1nnc(NC(=O)c2c(F)cccc2F)s1)NCC1CCCO1 (stereo not drawn),-3.8,/,/,/,-12.4,
O=C(CN(Cc1cccs1)C(=O)CNS(=O)(=O)c1ccccc1)NC1CCCC1,0.6,-2.9%,/,10.7,-6.5,
CCOc1ccc(CNC(=O)CCCc2cn(C)c3ccccc23)cc1OC,0.4,/,-20.8,-6.2,-1.7,
COc1ccc(S(=O)(=O)Nc2ccc3c(c2)n(C)c(=O)n3C)cc1C,-1.9,/,/,/,-0.4,
CCC(C)NC(=O)c1ccc(CS(=O)(=O)Cc2ccc(Cl)cc2)o1 (stereo not drawn),1.1,-3.8%,-0.6,1.4,-2.5,
COc1cc2c(=O)c(-c3ccc(O)cc3)coc2cc1OC1OC(CO)C(O)C(O)C1O (stereo not drawn),-6.0,-5.7%,-32.3,-0.1,-1.8,
Nc1ccc(Cc2nc3c(ccc4ccccc43)[nH]2)cc1,3.9,-6.3%,-16.5,16.5,5.8,
CN1C(=O)C(C)(C)c2cc(S(=O)(=O)N3CCCC(C(=O)Nc4ccc(Cl)cc4)C3)ccc21 (stereo not drawn),3.8,/,/,/,1.9,
CCN1C(=O)C(O)(CC(=O)/C=C/C=C/c2ccccc2)c2ccccc21 (stereo not drawn),-2.0,/,-19.9,-3.6,1.6,

# In the list so far, 6 contain two or more sulfur atoms:
SMILES,RecA intein inh,Mtb H37Rv,YopH PTP inh,Arbovirus anti,Mtb bLac sens,others
CCN(CC)S(=O)(=O)c1ccc(-c2nnc(SCC(=O)c3ccc(OC)cc3)o2)cc1,-4.1,0.2%,-1.1,6.7,2.4,
Cc1csc(NC(=O)CSc2nnc(-c3ccoc3C)n2Cc2ccco2)n1,5.7,9.5%,-37.3,-17.3,-1.4,
CCSc1nnc(SCC(=O)N2CCN(C(=O)c3ccco3)CC2)s1,2.1,/,/,/,3.9,
Cc1ccc(S(=O)(=O)N2CCOCC2)cc1NC(=O)Cn1ccsc1=N,-0.3,/,6.6,13.8,-0.5,
O=C(CSc1nnc(NC(=O)c2c(F)cccc2F)s1)NCC1CCCO1 (stereo not drawn),-3.8,/,/,/,-12.4,
O=C(CN(Cc1cccs1)C(=O)CNS(=O)(=O)c1ccccc1)NC1CCCC1,0.6,-2.9%,/,10.7,-6.5,

# Later entries
SMILES,RecA intein inh,Mtb H37Rv,YopH PTP inh,Arbovirus anti,Mtb bLac sens,others
COc1ccc(/C=C/C(=O)NCCc2nc3ccccc3[nH]2)cc1,1.1,-4.8%,/,/,0.3,
CN(C)c1ccc(C(=S)N2CCN(c3ccccc3)CC2)cc1,-0.3,3.8%,-38.7,2.3,2.3,
CCCCNC1=NCCS1,-1.8,-4.0%,/,15.5,-13.6,
O=C(CSc1ncn(-c2ccccc2)n1)c1cccs1,1.0,-4.1%,-102.6,9.0,-3.7,
COc1cccc(NC(=O)CC2C(=O)NC3CCCCC3N2C(=O)c2ccccc2)c1 (stereo not drawn),3.7,/,/,/,-16.9,
CCOC(=O)C1(CCOc2ccccc2)CCN(Cc2cccc(OCCO)c2)CC1,-0.8,/,/,/,1.8,
COC(=O)C(C)NC(=O)C1CCCN1C(=O)CNC(=O)OCc1ccccc1 (stereo not drawn),-3.1,/,/,/,-0.1,
COc1ccc(N2C(=O)NC(NC(=O)c3cccnc3)(C(F)(F)F)C2=O)cc1 (stereo not drawn),10.3,-4.9%,/,-1.9,-10.2,
CC(C)C[C@H](NC(=O)N1CCn2c1nc1ccccc12)C(=O)NC1CC1,-4.6,/,/,/,1.9,
